From PubChem BioAssay
Sa ugtP lethal = growth inhibition of ugtP-null S. aureus, primary screen, RN4220 ugtP deletion, OD600 | growth inhibition, % (no concentration beside the values) | 16 h; some inactives read as strong as hits | 330,000 compounds, 0.54% hits;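 active = z-score under -3 and OD600 up to 0.15 on both plates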;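 note: plate controls were untreated wells for no effect and antibiotic for full effect; wells of about 80 µL received 100 nL stock; the first replicate is given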
BJeLR lethal = MLPCN primary cell-based screen for lethality selective to Ras in HRASV12 cells; 300,000 compounds, 0.17% hits; BJeLR (HRASV12) viability, CellTiter-Glo ATP luminescence, 48 h; reference of the scale not given here; inhibition, % (test concentration not listed); AID 1554, 2009;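 active = replicate mean above 50%; inconclusive = above 50% but judged a plate artefact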;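 note: 50 nL library stock added to about 25 µL; numbers are from one replicate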
Bead autofluor = flagged as autofluorescent in microsphere protease counterscreen | AID 624483 | 360,000 compounds, 3.1% hits | fluorescence intensity (concentration not given with the values) | compound autofluorescence counterscreen, microsphere flow cytometry; active compounds read high;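 active = at least 3 SD above the mean of all compounds, about 16000 in these data; inconclusive = too few beads counted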;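 note: 100 nL of 1 mM stock went into each well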
Sa RN4220 lethal = growth inhibition of S. aureus RN4220, primary screen, OD600; 16 h; inhibition, % (concentration not given with the values); 330,000 compounds, 0.33% hits;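 active = z-score of -3 or lower and OD600 up to 0.18 on both plates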;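 note: plate controls were untreated cells for no effect and reference antibiotic for full effect; stock transfer was 100 nL into about 80 µL; one replicate is shown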
Mtb hypoxia inh = PubChem AID 1159583; M. tuberculosis hypoxia-regulated fluorescent reporter, fluorescence; fluorescence inhibition, % (concentration not given with the values); 300,000 compounds, 0.1% hits;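 active = 35 to 45% if threefold the growth effect, above 45% if 1.5-fold the growth effect; inactive = the rest, general growth blockers included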;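 note: wells of about 50 µL received 100 nL stock; 0% = vehicle wells and 100% = reference inhibitor wells; whole bacteria with a GFP reporter of the hypoxia response; strong numbers were not always called active; many hits fall short of the cut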
PrP 5UTR inh = inhibition of PrP 5' UTR reporter expression; cell-based PrP 5' UTR mRNA reporter, plate reader; inhibition, % (test concentration not listed); 340,000 compounds, 0.35% hits; AID 488862, 2010;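 active = every replicate at 50% or more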;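 note: 0 = median of the neutral control wells; tested in H4 reporter cells; numbers are from one replicate; inactives centre near -14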
Mtb hypoxia inh growth = second read-out of Mtb hypoxia inh, no call of its own (marks repeat the call); growth inhibition, %; measured here: M. tuberculosis growth (absorbance);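 0% = vehicle and 100% = reference antibiotic; read after six days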
The depositor's hits bear a star; ? = inconclusive; . = no result given; & = joins results of further samples.

SMILES	Sa ugtP lethal	BJeLR lethal	Bead autofluor	Sa RN4220 lethal	Mtb hypoxia inh	Mtb hypoxia inh growth	PrP 5UTR inh
CCOc1cc(C(=O)NCCN2CCOCC2)cc(OCC)c1OCC	21	0	2527	22	1	-5	0
COc1ccc(S(=O)(=O)N2CN(CCc3ccc(OC)c(OC)c3)c3nc4ccccc4nc32)cc1	4	5	2523	1.6	-10	-5	-21
CCOC(=O)c1cc(-c2csc(NN=Cc3ccccc3Cl)n2)on1	-11	.	.	1.0	.	.	.
NNc1ncnc2c1cnn2-c1ccccc1	19	10	2954	-15	6	16	2
CC(=O)c1c(C)n(CCO)c2ccc(O)cc12	-1	0	9307	7.9	-1	3	.
O=C(NN=Cc1cccc(F)c1)c1ccc(Cn2cc(Br)c([N+](=O)[O-])n2)o1	12	.	.	7.8	-4	0	.
CC12CC3CC(C1)CC(C(=O)NNC(=O)c1ccncc1)(C3)C2	8	.	3713	2.3	14	12	1
C/C(=N/NC(=O)CSc1ccccn1)c1ccc([N+](=O)[O-])cc1	.	19	10978	.	.	.	0
CCOc1ccc(NC(=O)CSc2nncc(=O)n2N)cc1	4	0	5640	2.3	5	10	-13
O=C(NCCCN1CCOCC1)c1cc2ccccc2cc1O	3	9	5411	2.3	14	4	-15
c1coc(CNc2nc3ccccc3n2CCN2CCOCC2)c1	-3	1	9040	2.8	-4	0	-23
CCSc1nnc2c(n1)OC(c1ccc(C(=O)O)cc1)N(C(C)=O)c1ccccc1-2 (stereo unspecified)	-12	6	5509	3.7	.	.	4
Cc1ccc(NC(=O)CO/N=C(\N)c2nonc2N)cc1C	3	4	2162	3.2	3	4	-19
Cc1cc2nc(C3CCN(Cc4nnnn4Cc4ccccc4)CC3)[nH]c2cc1C	-2	19	10401	-0.7	12	7	16
NC(=O)C1=CC(c2ccc(C(F)(F)F)cc2)CC(OCc2ccc(CO)cc2)O1 (stereo unspecified)	4&-1	.	.	9.2&4.5	17&-7	3&1	.
O=C(O)c1sc2cc(C(F)(F)F)cnc2c1-c1ccccn1	2	3	4695	3.0	11	2	-7
O=C(N=C1SC2CS(=O)(=O)CC2N1c1ccccc1C(F)(F)F)C1CCCO1 (stereo unspecified)	2	2	5561	1.6	1	1	-19
O=C(NN=C1CCCc2ccccc21)c1cc([N+](=O)[O-])cc([N+](=O)[O-])c1	4	.	.	3.1	-2	26	.
O=C(NCC1CCN(C(=O)c2c(F)c(F)c(F)c(F)c2F)CC1)c1c(F)c(F)c(F)c(F)c1F	-2	8	5037	3.1	16	4	-9
CCCCNC(=O)C1CC(c2cccc([N+](=O)[O-])c2)=NO1 (stereo unspecified)	2	1	3816	6.7	5	13	-41
CC(=O)Nc1ccc(C(=O)OCC(=O)N(c2ccccc2)C2CCCCC2)cc1	-1	.	3703	1.6	7	17	-7
CCCCn1c(SCC(=O)Nc2cc(C)on2)nc2ccsc2c1=O	0	-2	11106	3.6	4	5	-23
CCn1cc(CNC(=O)CC2C(=O)NCCN2CC(c2ccccc2)c2ccccc2)cn1 (stereo unspecified)	6	2	3471	3.2	-2	10	-46
CCCN(C(=O)COC(=O)c1[nH]c(C)c(C(=O)OC)c1C)c1c(N)n(Cc2ccccc2)c(=O)[nH]c1=O	-2	0	?	0.8	4	4	-14
O=C1c2ccsc2SCCN1Cc1cccc(F)c1	27	-4	3737	4.3	15	14	-10
COc1ccc(OC)c(C(=O)CSc2nnnn2C)c1	-9	8	10164	8.1	-6	3	-26
O=C(NCCN1CCOCC1)c1ccc(F)cc1	8	-10	9102	5.9	5	1	-20
CCN1C(=O)[C@H]2[C@@H](c3ccc(-c4ccc(OC)cc4)cc3)N3CCC[C@@]3(C(=O)OC)[C@H]2C1=O	.	-1	3788	.	.	.	-14
CCCSc1nc(N)c(C#N)c(-c2ccc(C)cc2)c1C#N	-5	-2	5150	-1.3	.	.	-22
CCS(=O)(=O)NCCc1cc2ccc(C)cc2[nH]c1=O	2	-1	2772	-0.6	.	.	-14

Reformatted with bars between the fields: five of the compounds above
smiles | Sa ugtP lethal | BJeLR lethal | Bead autofluor | Sa RN4220 lethal | Mtb hypoxia inh | Mtb hypoxia inh growth | PrP 5UTR inh
CC12CC3CC(C1)CC(C(=O)NNC(=O)c1ccncc1)(C3)C2 | 8 | . | 3713 | 2.3 | 14 | 12 | 1
NNc1ncnc2c1cnn2-c1ccccc1 | 19 | 10 | 2954 | -15 | 6 | 16 | 2
CCN1C(=O)[C@H]2[C@@H](c3ccc(-c4ccc(OC)cc4)cc3)N3CCC[C@@]3(C(=O)OC)[C@H]2C1=O | . | -1 | 3788 | . | . | . | -14
NC(=O)C1=CC(c2ccc(C(F)(F)F)cc2)CC(OCc2ccc(CO)cc2)O1 (stereo unspecified) | 4&-1 | . | . | 9.2&4.5 | 17&-7 | 3&1 | .
O=C(N=C1SC2CS(=O)(=O)CC2N1c1ccccc1C(F)(F)F)C1CCCO1 (stereo unspecified) | 2 | 2 | 5561 | 1.6 | 1 | 1 | -19

(continued)
SMILES	Sa ugtP lethal	BJeLR lethal	Bead autofluor	Sa RN4220 lethal	Mtb hypoxia inh	Mtb hypoxia inh growth	PrP 5UTR inh
COc1cc([N+](=O)[O-])ccc1NC(=S)NNC(=O)CCC(=O)Nc1ccccc1Cl	11	-6	5417	-3.5	-3	0	-9
O=C(N/N=C/c1ccc([N+](=O)[O-])o1)c1cc(-c2ccc(-c3ccccc3)cc2)nc2ccccc12	.	47	2625	.	.	.	20
Cc1cccc[n+]1CCCCCCCCCC[n+]1ccccc1C	9	-3	4292	4.8	13	0	-20
N#C/C(=C\c1c(Cl)cccc1Cl)c1nc2ccccc2[nH]1	11	-4	4403	-2.8	1	-1	-21
O=C(CCC(=O)Nc1cccc(Cl)c1)N/N=C/c1cc([N+](=O)[O-])ccc1O	.	-16	2338	.	.	.	-5
C=CC1C[C@@]1(C)C(NP(=O)(c1ccccc1)c1ccccc1)c1ccccc1 (stereo partly specified)	3	.	.	10.0	4	8	.
Cn1c(C(=O)OC(C(=O)NCC2CCCO2)c2cccnc2)cc2sccc21 (stereo unspecified)	1	.	3813	0.6	9	0	-6
O=C(c1ccncc1)N1CCN(S(=O)(=O)c2ccccc2F)CC1	7	.	3908	4.5	10	12	-17
CCc1ccc2oc(=O)cc(CN3CCCCC3C)c2c1 (stereo unspecified)	2	1	5663	6.3	8	5	-19
CNC(=S)N1CCc2sccc2C1C (stereo unspecified)	10	6	6227	3.3	3	6	-30
COc1cccc(CNC(=O)c2cc(=O)[nH]c3ccc(S(=O)(=O)N4CCOCC4)cc23)c1	3	.	6753	6.9	2	2	-6
Cc1cccc(-c2nnnn2-c2cccc(C)c2)c1	13	4	5049	4.7	8	4	-24
CN(CCc1ccccc1)C(=O)c1ccc(NC(=O)Cc2cccc(NC(=O)C3CCN(C(=O)C4CCC4)CC3)c2)cc1	-2	.	3355	3.1	-2	4	-12
CCOc1ccc(/C=N/Nc2nc(C)cs2)c(O)c1	.	1	3816	.	.	.	-69
O=C(CCC(=O)CCN1CCCCC1)CCN1CCCCC1	13	-4	3258	3.9	6	3	-17
CC(C)=CCC/C(C)=C/C=NNC(=O)c1ccc([N+](=O)[O-])cc1	11	.	.	3.0	-1	-4	.
CN(c1ccccc1C(=O)Nc1ccc(F)c(Cl)c1)S(C)(=O)=O	4	-2	2626	4.1	14	13	-33
O=[N+]([O-])c1ccc(NNS(=O)(=O)c2cc(Cl)ccc2Cl)nc1	-3	2	6450	1.1	-3	20	-27
N#CCSc1nnc(C2CCCCC2)n1Cc1ccccc1	0	-2	9060	7.9	17	13	-10
CCOC(=O)C1=C(C)N(C)C(C)=C(C(=O)OCC)C1c1ccncc1	9	2	3558	-1.1	.	.	-1
O=C(O)c1cc(-c2ccc(Cl)cc2)n(-c2ccc(Cl)cc2)n1	14	-1	5082	8.5	-1	11	-4
C=CCNC(=O)CN1C2CCCC1CC(NC(=O)c1ccccc1C)C2 (stereo unspecified)	-3	-8	9629	3.9	4	5	-19
CCS(=O)(=O)c1nc(S(=O)(=O)c2ccc(C)cc2)c(N2CCCC(C)C2)s1 (stereo unspecified)	4	0	4031	0.3	-7	8	0
CC(=O)c1ccc(NC(=O)c2cc(CC(C)C)on2)cc1	8	8	5386	-0.3	7	9	34
O=C(O)COc1ccc(C=NNC(=O)Cc2ccc(Cl)cc2)cc1	3	.	.	4.9	-2	1	.
Cn1ccnc1SCC(=O)Nc1ccc2c(c1)OCO2	2	1	3211	6.1	6	7	-19
COc1ccc(S(=O)(=O)N2CCOCC2)cc1C(C)C	-8	-1	11195	7.9	16	6	-7
CC(=O)c1cccc(NS(=O)(=O)c2c(C)noc2C)c1	4	0	3015	6.2	4	5	-15
Cc1cccc(-n2ncc3c(NCc4ccccc4)ncnc32)c1	-7	15	5721	-2.1	5	8	-52
Oc1ccc(/C=N/n2c(C3CCCCC3)n[nH]c2=S)c(O)c1	.	-4	2933	.	.	.	3
CCN(CC)S(=O)(=O)c1ccc(N/N=C/c2cccnc2)nc1	.	1	?	.	.	.	-10
CCn1cnc2sc(C(=O)Nc3ccc4c(c3)OCO4)c(C)c2c1=O	-1	-1	3297	-11	3	10	-69
CC1CCCCN1C(=O)CNCC1CCCO1 (stereo unspecified)	8	11	4294	1.0	21	0	-1
O=C(Nc1ccncc1)c1ccc(Cl)c([N+](=O)[O-])c1	1	-4	3589	3.7	7	1	-43
CCCOc1ccc(/C(O)=C2/C(=O)C(=O)N(CCCn3ccnc3)C2c2ccco2)cc1 (stereo unspecified)	-5	2	3015	4.2	1	6	-23
Cc1noc(NS(=O)(=O)c2ccc(NC(=O)C34CC5CC(C3)CC(n3cnc(Br)n3)(C5)C4)cc2)c1C	6	-2	1985	-0.6	20	21	8
Cc1ccc(C)c(N/C=C(\C#N)c2nc3ccccc3o2)c1	7	0	2959	1.0	.	.	-43
CN1CCN(CCCCOc2cccc3ccccc23)CC1	1	10	3221	-0.9	7	3	.
Cn1c(SCC(=O)N2CCN(Cc3ccccc3)CC2)nnc1-c1ccncc1	-3	1	10774	1.9	-3	13	-11
Cc1nn(C)cc1/C=N/NC(=O)c1sc2ccccc2c1Cl	.	-6	4151	.	.	.	-19
CC12CC(NC(=O)N1c1cccc(C(=O)NCc3ccc4c(c3)OCO4)c1)c1cc(Cl)ccc1O2 (stereo unspecified)	-11	-8	3221	-5.4	.	.	-9
CCC1=[N+](CC(=O)c2ccc(C)cc2)CCn2cccc21	-7	2	5037	-6.2	9	26	-44
Cc1ccc2nc(C)c(C(=O)NN=C3CCN(C)CC3)n2c1	0	-2	4025	-0.7	10	8	0
COc1cc(-c2noc(CCCC(=O)NC3CCCCC3)n2)cc(OC)c1OC	17	3	17180*	5.1	13	-1	-21
CCOC(=O)c1ccc(Nc2nnc(C)c3ccccc23)cc1	3	1	5709	-2.1	9	-2	-35
COc1ccc(S(=O)(=O)N2CCC3(CC2)OCCO3)cc1	6	7	2118	3.8	-6	10	-25
O=C(CNC(=O)c1ccc(F)cc1)NCc1ccc(S(=O)(=O)N2CCOCC2)cc1	0	.	6309	3.1	7	5	-15
COc1ccc(Cl)cc1NC(=S)NCCc1c[nH]c2ccccc12	-20	1	11640	-1.7	5	11	-10
COCc1cc(C)nc(SCC(=O)Nc2cccc3cccnc23)c1C#N	4	-8	5170	6.7	9	4	-47
Cc1ccnc2nc(C(=O)OCC(=O)N3CC(C)CC(C)C3)nn12 (stereo unspecified)	3	.	5114	3.3	9	7	-13
CN(C)c1ccc(/C=[N+](\[O-])C(C)(C)C=NO)cc1	-4	.	.	3.1	0	13	.
CCOC(=O)CN1C(=O)C(O)=C(C(C)=O)C1c1ccccc1 (stereo unspecified)	-4	-4	4311	0.2	.	.	-20
Cc1cc(C)c2c(c1)c1nnc(SCCN3CCCCC3)nc1n2C	9	24	3378	2.5	5	-6	6
CCN(C(=O)c1cc(Cl)ccc1OC)C1CCCCC1	-3	-4	11901	3.4	5	10	-19
O=C(COc1coc(CN2CCN(c3ccccc3)CC2)cc1=O)NC1CCCC1	9	-7	5530	3.3	3	-3	-13
CC(C)(C)OCC(NC(=O)C(CC(N)=O)NC(=O)OC(C)(C)C)C(=O)OC(C)(C)C (stereo unspecified)	2	3	5913	-0.8	6	-3	-8
